Source: PubChem
Mtb growth = M. tuberculosis H37Rv growth inhibitors, H37Rv strain (AID 1626); M. tuberculosis H37Rv growth inhibition; higher % means a stronger effect; inhibition, % at 10 µM; hits with a dose series show IC50 in µM; hit rate 0.95% among 220,000;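 active means confirmed in a dose series; inconclusive means inhibition above 80% but not taken into the dose series; inactive means below 80% or under 30% at every dose of the series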;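 further: bacteria incubated seven days before Alamar blue readout; 0% = bacteria only wells and 100% = bacteria with antibiotic wells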
RecA intein inh = Mtb RecA intein splicing inhibitors, primary screen, biochemical, fluorescence, HTS; inhibition, %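 (about 9 µM by stock and volumes)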; hit rate 0.75% among 290,000; cell-free RecA intein splicing; in the data active means inhibition above about 30%; inconclusive means no clear call, values can overlap the other calls;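 further: 0% = vehicle wells and 100% = reference inhibitor control wells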
Target sequence (P9WHJ3 whole entry, looked up): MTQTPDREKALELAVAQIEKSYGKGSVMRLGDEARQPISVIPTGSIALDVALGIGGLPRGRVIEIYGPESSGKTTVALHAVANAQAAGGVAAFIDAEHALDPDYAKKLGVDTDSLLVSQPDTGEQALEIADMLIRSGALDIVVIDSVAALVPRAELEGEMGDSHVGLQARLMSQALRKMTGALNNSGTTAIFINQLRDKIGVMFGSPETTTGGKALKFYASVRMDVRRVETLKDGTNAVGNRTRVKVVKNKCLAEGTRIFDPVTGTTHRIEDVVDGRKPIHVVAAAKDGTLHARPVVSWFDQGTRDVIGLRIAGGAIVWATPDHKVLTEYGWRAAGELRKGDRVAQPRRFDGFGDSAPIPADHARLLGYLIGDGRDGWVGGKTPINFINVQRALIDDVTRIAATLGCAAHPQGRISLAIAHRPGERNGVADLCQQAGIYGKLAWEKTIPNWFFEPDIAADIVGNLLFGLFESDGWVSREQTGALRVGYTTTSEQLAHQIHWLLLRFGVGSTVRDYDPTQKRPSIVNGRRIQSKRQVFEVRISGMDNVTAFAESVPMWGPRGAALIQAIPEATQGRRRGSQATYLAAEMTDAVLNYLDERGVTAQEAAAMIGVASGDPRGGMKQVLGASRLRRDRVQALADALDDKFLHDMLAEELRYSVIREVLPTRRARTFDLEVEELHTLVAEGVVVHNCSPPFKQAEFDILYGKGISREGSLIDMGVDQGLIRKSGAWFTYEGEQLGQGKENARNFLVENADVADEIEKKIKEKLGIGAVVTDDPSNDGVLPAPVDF
YopH PTP inh = YopH tyrosine phosphatase inhibitors, primary screen, biochemical, fluorescence Ex485/Em525; inhibition, %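 (about 10 µM by stock and volumes)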; hit rate 0.16% among 140,000; AID 898, 2007;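 active means inhibition of 50% or more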;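 further: controls were vehicle for no effect and minimum signal wells for full effect; inactives centre near -20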
Mtb bLac sens = beta-lactam sensitization of Mtb H37Rv, H37Rv | M. tuberculosis H37Rv growth with meropenem, percent inhibition; hits of this screen are not shown here | hit rate 0.27% among 330,000 | AID 434955, 2010 | inhibition, % at 25 µM;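 active means about 74% or more and at least 40 points above the plate without the antibiotic, then above 30% in a dose series; inconclusive means first-round hits that could not be retested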;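 further: growth measured after seven days incubation then overnight dye step; 0% = bacteria only wells and 100% = bacteria with antibiotic; twin plates without the antibiotic show which effects depend on it; some results filed as inactive read as strong as hits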
Arbovirus inh = antivirals against arbovirus infection, primary screen, cell-based, full library, 10K replicate subset. hit rate 0.37% among 200,000. AID 1251, 2008. inhibition, % at 10 µM. arbovirus infection cell-based antiviral screen;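 active means inhibition from about 30%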;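 further: bluetongue infection of BSR cells; cell survival read as ATP light after 72 h; 0% = infected wells without compound and 100% = uninfected wells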
Arbovirus inh repeat = further read-out of Arbovirus inh, marked with its call; inhibition, %; measured here: 10K subset replicate screen; many hits read low in the repeat;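 first of two repeat runs on a subset; 0% = infected and 100% = uninfected wells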
Numbers without * were called inactive; ? = inconclusive; nt = no result given.

Sample of the layout, four compounds:
SMILES	Mtb growth	RecA intein inh	YopH PTP inh	Mtb bLac sens	Arbovirus inh	others
CCOC(=O)NN1C(=O)c2ccccc2NC1c1ccc(OC)c(OC)c1 (centres undefined)	-6%	-2.4	nt	-1	3
CCc1cc2c(NCCC(=O)O)ncnc2s1	-2%	0.6	-29	0	9	Arbovirus inh repeat=-1
CCCCN(C)CCNC(=O)C(=O)c1c(C)[nH]c2ccccc12	-2%	2.2	nt	0	0
Cc1cccc(NC(=S)NNC(=O)c2csc3c2CCCC3)c1	5%	9.0	-28	14	-22

Results, from the first entry:
SMILES	Mtb growth	RecA intein inh	YopH PTP inh	Mtb bLac sens	Arbovirus inh	others
CCOC(=O)NN1C(=O)c2ccccc2NC1c1ccc(OC)c(OC)c1 (centres undefined)	-6%	-2.4	nt	-1	3
CCc1cc2c(NCCC(=O)O)ncnc2s1	-2%	0.6	-29	0	9	Arbovirus inh repeat=-1
CCCCN(C)CCNC(=O)C(=O)c1c(C)[nH]c2ccccc12	-2%	2.2	nt	0	0
Cc1cccc(NC(=S)NNC(=O)c2csc3c2CCCC3)c1	5%	9.0	-28	14	-22
O=S1(=O)CCOC[C@H](Cc2ccccc2)N1Cc1cccc(Cl)c1	-3%	6.2	nt	-4	nt
CCCCOc1ccc(C2C(C(=O)c3ccc(C)o3)=C(O)C(=O)N2Cc2ccco2)cc1 (centres undefined)	nt	7.6	nt	-4	nt
c1ccc(-c2csc(-c3ccc(-c4csnn4)cc3)n2)cc1	nt	0.8	nt	-3	nt
CCOC(=O)c1cnc2c(C(F)(F)F)cccc2c1NCCCN1CCOCC1	nt	3.3	nt	2	nt
N/C(Cc1nc(-c2ccc(F)cc2)cs1)=N\O	-1%	0.1	nt	17	nt
Cc1ccc2cccc(OCC(=O)NCc3ccco3)c2n1	-13%	0.8	-35	3	4
COc1cc(C2/C(=C(\O)c3ccc4c(c3)CC(C)O4)C(=O)C(=O)N2CCCn2ccnc2)cc(OC)c1OC (centres undefined)	nt	1.5	nt	3	nt
CCOC(=O)c1c(C)[nH]c(C(=O)/C(C#N)=C/c2ccc(OC)c(OC)c2)c1C	10%	1.9	-25	3	-1
CC(C)(C)NC(=O)/C=C/c1cccc(C(F)(F)F)c1	-6%	2.3	-26	-2	-3
CC1CN(C(=O)c2cccc(COc3ccc(Br)cc3)c2)CC(C)O1 (centres undefined)	6%	-0.6	-12	7	-2
Cn1c(SCc2ccccc2)nnc1-c1ccc2c(c1)OCO2	-3%	1.0	-25	-9	-9
Cc1ccc([N+](=O)[O-])cc1N=Nc1c(-c2ccc([N+](=O)[O-])cc2)[nH]n(C(N)=S)c1=O	-3%	2.1	nt	nt	-10
COc1ccc(/C(C)=N/NC(=O)CNC(=O)C2COc3ccccc3O2)c(OC)c1 (centres undefined)	11%	0.4	nt	-6	nt
O=C(NCCc1ccccc1)C1CCN(Cc2ccccc2F)CC1	1%	-4.0	-26	0	-5
CCSc1ncc(C)cc1[N+](=O)[O-]	-1%	1.0	-27	-2	2
CCOc1ccc2nc(SC(C)C(N)=O)[nH]c2c1 (centres undefined)	-3%	1.0	-32	-5	1
CCc1nc(SCc2cccnc2)c2c(=O)n(C)c(=O)n(C)c2n1	3%	3.5	nt	-3	9
COc1cc(C2/C(=C(/O)c3ccc(OCC(C)C)cc3)C(=O)C(=O)N2CCN(C)C)ccc1O (centres undefined)	0%	-1.0	-22	0	14
NC(=S)NC1CC2C=CC1C2 (centres undefined)	-6%	nt	nt	-4	nt
CS(=O)(=O)N1CCc2nc(-c3ccccc3)sc2C1	nt	-1.6	nt	-13	nt
CCn1c2ccc(C)cc2c2nnc(SCCN3CCCCC3)nc21	nt	1.1	nt	40	nt
Next records follow:
SMILES	Mtb growth	RecA intein inh	YopH PTP inh	Mtb bLac sens	Arbovirus inh	others
Cc1ccc2c(c1)N(Cc1cccc(Cl)c1)C(=O)c1cccnc1O2	-2%	13	-34	6	5
COC(=O)c1ccc(C2c3c(oc4ccc(F)cc4c3=O)C(=O)N2CCO)cc1 (centres undefined)	-10%	-0.6	-57	0	19
O=C(Nc1ccc(N2CCCCC2)c(Cl)c1)c1cccnc1	13%	-0.1	-19	67	4
CCN(CC)S(=O)(=O)c1ccc(Cl)c(NC(=O)c2ccccc2C)c1	-2%	1.7	-4	5	-6
CC(=O)N1CC2(CC(=O)OC(C)C)CN(C(C)=O)CC(CC(=O)OC(C)C)(C1)C2=O	-5%	0.0	-8	nt	2
CC(=O)c1cccc(CN2CCc3ccc(NC(=O)C4CCCO4)cc3C2)c1 (centres undefined)	nt	1.2	nt	-5	nt
O=C(COC(=O)c1cc[n+]([O-])cc1)Nc1cc([N+](=O)[O-])ccc1Cl	nt	3.6	nt	-11	nt
CC(C)c1onc(C(=O)NCc2ccc(F)cc2)c1[N+](=O)[O-]	3%	-5.1	-12	1	8
COc1ccc(F)c(CN2CCC(n3nccc3NC(=O)CCCc3ccccc3)CC2)c1	nt	0.9	nt	-8	nt
CCn1nc(C)c(/C=N/NC(=S)Nc2ccc(Cl)cc2Cl)c1C	1%	5.6	-35	10	-14
CCn1ccc(C(=O)NC2CCCC2)n1	nt	-0.1	nt	-11	nt
N#C/C(=C\c1c(N2CCN(c3ccccc3)CC2)nc2ccccn2c1=O)S(=O)(=O)c1ccccc1	nt	2.4	nt	-3	nt
CCOC(=O)c1c(C)[nH]c(C(=O)CSc2nnc(-c3cccs3)n2Cc2ccccc2)c1C	-6%	-3.1	12	3	-4
COc1ccc2[nH]c(=O)c(CN(C(=O)c3cccnc3)c3ccc(C)cc3)cc2c1	-4%	1.5	-12	-11	-6
COC(=O)CN(c1cccc(F)c1)S(C)(=O)=O	2%	3.6	4	8	1
CN1C(C(=O)Nc2cccc(O)c2)=CC(c2ccco2)=NS1(=O)=O	nt	-4.3	nt	2	nt
CC(C)C(=O)NC(=S)Nc1ccccc1F	14%	-1.2	-25	3	-2
O=C(COC(=O)CCCC1=NS(=O)(=O)c2ccccc2N1)Nc1ccc(Br)cc1	nt	5.9	nt	1	nt
Cc1cccc(NC(=O)CCN2C(=O)c3ccccc3S2(=O)=O)c1C	nt	-1.9	nt	-3	nt
O=C(Cn1c(=O)c2c(ncn2C2CCCC2)n(Cc2ccccc2)c1=O)N1CCc2ccccc21	9%	5.9	-18	-3	-12
Cc1nc2ncccn2c1-c1csc(Nc2ccc(S(N)(=O)=O)cc2)n1	nt	2.8	nt	-3	nt
C/C(CCc1ccc2c(c1)OCO2)=N\NC(=O)c1ccc(C)cc1C	-4%	-0.8	nt	0	-6
COc1ccc(-c2[nH]ncc2CN(C)C(C)c2ccon2)c(OC)c1 (centres undefined)	52%	0.1	nt	-4	3
COc1cccc(N2CC(C(=O)NNC(=O)c3ccc(Cl)cc3)CC2=O)c1 (centres undefined)	nt	-0.6	nt	-1	nt
COc1ccc(CNC(=S)Nc2ccccc2-c2ccccc2)cc1	6%	7.5	nt	-4	9
Continuation:
SMILES	Mtb growth	RecA intein inh	YopH PTP inh	Mtb bLac sens	Arbovirus inh	others
CN1C(=O)C(CC(=O)N2CCN(C(c3ccccc3)c3ccccc3)CC2)N(C)C1=O (centres undefined)	-8%	nt	-4	-3	-3
Cc1cc(S(=O)(=O)NC2CCCC2)ccc1F	3%	4.7	-20	2	2
COCC(=O)N(Cc1cc2cc(OC)ccc2[nH]c1=O)c1ccc(C)cc1	-13%	2.3	-32	-8	2
COC(=O)c1ccc(NC(=O)C2CC(=O)N(c3ccc(C)cc3)C2)cc1 (centres undefined)	9%	nt	-18	0	1
Cc1ccccc1Cn1c(=O)n(-c2ccccc2)c(=O)c2ccc(C(=O)NCc3ccco3)cc21	nt	nt	-9	1	-9
CCOC(=O)c1c(C)c(-c2ccccc2)n(CC(=O)N2CCN(C)CC2)c1C	-3%	0.1	-38	-2	1	Arbovirus inh repeat=-1
Cc1cc(S(=O)(=O)N(Cc2ccccn2)Cc2ccco2)ccc1-n1cnnn1	-3%	1.1	-40	0	2
CCCn1c(SCC(=O)Nc2ccccc2OC)nnc1-c1ccco1	nt	-0.1	nt	-2	nt
COC(=O)Cc1c(O)ccn(Cc2cccc(C(F)(F)F)c2)c1=O	3%	1.1	nt	0	5
O=C(NNC1=C(C(=O)C(F)(F)F)CCC1)c1ccccc1Cl	5%	3.9	-22	48	-36
CC(C)(CNS(=O)(=O)c1ccc2c(c1)OCCO2)N1CCOCC1	-7%	-3.1	nt	0	12
O=C(c1cccc(S(=O)(=O)N2CCCC2)c1)N1CCN(c2ccccc2F)CC1	-3%	0.8	-34	1	5
C/C(N)=C(/C#N)C(=O)CSc1nnnn1-c1ccc(C)cc1	-2%	1.2	-8	-6	-8
CCC(C)c1ccccc1N1CC(C(=O)Nc2ccc(C)c(S(=O)(=O)N3CCOCC3)c2)CC1=O (centres undefined)	nt	-4.8	nt	-3	nt
CCOc1ccc(N(CC(=O)NCC2CCCO2)C(=O)CCC(=O)Nc2ccccn2)cc1 (centres undefined)	-8%	7.2	-8	-5	4
CC(=O)Nc1ccc(C(=O)Nc2cc(C(F)(F)F)ccc2-n2cnc3ccccc32)cc1	14%	-1.5	-18	0	-8
CC1=C(C)CC(C(=O)Nc2ccc3c(c2)OCO3)C(C(=O)O)C1 (centres undefined)	4%	4.1	nt	-12	-4
CCOC(=O)c1c(C)[nH]c(C(=O)OCC(=O)NC2(C#N)CCCCC2)c1C	nt	-5.2	nt	-5	nt
COc1ccc(/C=N/NC(=O)c2ccccc2O)cc1CN1CCOCC1	nt	-1.6	nt	6	nt
Brc1ccc2c(c1)OCCOCCOc1cc(Br)ccc1OCCOCCOCCO2	?	7.7	-4	83	-19
O=C(CSc1nc2ccccc2s1)NNC(=S)Nc1ccc(Br)cc1	nt	0.0	6	-4	16
COc1ccccc1NS(=O)(=O)c1cc(C(=O)NCCN2CCOCC2)ccc1Cl	-1%	0.3	-49	-5	10
Cc1ccc(-c2csc(Cc3nc(-c4cc5ccccc5oc4=O)cs3)n2)cc1	-2%	11	-30	8	11
COc1ccc(-n2nc(C(=O)NCC(=O)NCCCN3CCC(C)CC3)c3ccccc3c2=O)cc1Cl	nt	-0.5	nt	-8	nt
c1ccc(Nc2nc(N3CCOCC3)c3ccccc3n2)cc1	15%	0.2	3	-12	4
More results.
SMILES	Mtb growth	RecA intein inh	YopH PTP inh	Mtb bLac sens	Arbovirus inh	others
COc1cccc(/C=N/n2nnnc2N)c1OCC#N	nt	2.7	nt	-8	nt
C=CCSc1nc(N(CC)CC)c2sccc2n1	7%	12	-9	42	2
CC1(C)CC2(CCCN(C(=S)Nc3ccccc3)C2)CCO1 (centres undefined)	nt	0.5	nt	-4	nt
COc1ccc(CC(=O)Nc2cc(S(=O)(=O)N3CCOCC3)ccc2N2CCOCC2)cc1	1%	nt	nt	5	9
C/C(=N\NC(=O)COc1ccc(C(C)(C)C)cc1)c1ccc(-n2ccnc2)cc1	13%	-2.9	-17	80	-15
Nc1nc(-c2ccco2)nn1C(=O)c1ccccc1Cl	-1%	4.3	nt	nt	6
O=C(N/N=C\c1c(O)ccc2ccccc12)c1ccc(O)cc1	nt	-8.0	nt	9	nt
COc1ccccc1N/C(N)=N/c1nc(CSc2nc3ccccc3s2)cc(=O)[nH]1	3%	0.3	-17	22	-31
COc1cnn(-c2cccc(C)c2)c(=O)c1Cl	nt	0.6	nt	-4	nt
CN1CCN(C(CNC(=O)Nc2ccc(Cl)cc2)c2ccc(F)cc2)CC1 (centres undefined)	nt	1.4	nt	-11	nt
CCN(CC)c1ccc(NS(=O)(=O)c2cn(C)c(=O)n(C)c2=O)c(C)c1	nt	-12	nt	-5	nt
C/C=C(\C)CN1CCC(n2nccc2NC(=O)CCc2ccccc2)CC1	nt	0.6	nt	-11	nt
Cc1ccc(CNC(=O)CC(C)S(=O)(=O)c2ccc3c(c2)NC(=O)CO3)cc1 (centres undefined)	nt	-1.7	nt	1	nt
COc1ccc(CN(N=O)C2CC(=O)N(c3ccc(OC)cc3)C2=O)cc1 (centres undefined)	3%	nt	nt	-1	nt
CC(C)OP(=O)(OC(C)C)C1(O)C(=O)Nc2ccc(Br)cc21 (centres undefined)	3%	3.8	-38	-5	-7
CCOc1cc(-n2cnnn2)c(OCC)cc1NC(=O)c1cnccn1	1%	1.2	nt	1	nt
Cc1cc(C)n2c(Nc3ccc4c(c3)OCCO4)c(-c3ccco3)nc2n1	5%	nt	-40	nt	8
CC(C)CC(=O)Nc1ccc(S(=O)(=O)N2CC3CC(C2)c2cccc(=O)n2C3)cc1 (centres undefined)	nt	-1.0	nt	0	nt
C/C(=C\C(=O)c1cccnc1)Nc1ccc(C)c(C)c1	nt	nt	8	98	-35

This is a subset, so the mix of outcomes need not match the whole.
